Ecoli growth – E. coli growth inhibition, primary screen, OD600. 330,000 compounds, 0.21% hits. OD600 absorbance (test concentration not listed). Escherichia coli growth, 23 h; hits give low values;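 active = OD600 absorbance below the run mean of sample wells minus 3.6 SD, in any replicate, cut at about 0.56 in these data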;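 also: stock transfer was 300 nL into about 60 µL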
Ecoli rRNA inh – reduced GFP signal of wild-type E. coli, primary screen, bacterial rRNA inhibitor project, GFP/RFP fluorescence, OD600, single point; GFP signal change (wild-type ribosome), % (concentration not given with the values); 350,000 compounds, 1.6% hits; E. coli WT GFP vs humanized-ribosome RFP mutants, 24 h; hits give low values; DMSO median 0, no signal -100; AID 720706, 2013;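 active = significant combined selectivity score with lowered wild-type GFP, culture density cut under 30%, mutant RFP and density less affected; inactive = any of these conditions unmet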; also: one replicate is shown; some compounds called inactive have numbers as strong as hits
FGF22 binding – binders of human FGF22 protein, primary screen, FGF22 synaptogenesis inhibitor project, biophysical, thermal shift, single point; recombinant FGF22 thermal shift, SYPRO orange fluorescence; percent of sucrose octasulfate shift, DMSO zero; calls only at 9.99 µM; 340,000 compounds, 1.5% hits; AID 651658, 2012;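 active = melting point raised past a set limit in the mean and every replicate; three in four hits are not shown here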
Target sequence (Q9HCT0 whole entry, looked up): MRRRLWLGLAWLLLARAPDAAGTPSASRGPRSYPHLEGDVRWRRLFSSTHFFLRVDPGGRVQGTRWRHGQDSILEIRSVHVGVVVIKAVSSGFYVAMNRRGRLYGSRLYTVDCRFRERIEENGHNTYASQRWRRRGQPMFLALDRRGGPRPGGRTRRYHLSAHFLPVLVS
B2AR ag – beta2AR agonists driving receptor internalization, primary screen, cell-based, FAP fluorogen, flow cytometry | Beta-2 adrenergic receptor (Homo sapiens), P07550 | 340,000 compounds, 0.43% hits | response, % (no concentration beside the values) | Am2.2-beta2AR cells; reference of the scale not given here;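 active = response above a set limit, near 3 SD of response in nonfluorescent compounds, cut at about 42% in these data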;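 also: stock transfer was 100 nL into about 11 µL; a reference agonist was the positive control; negative values mostly stem from fluorescent compounds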
Target sequence (P07550 whole entry, looked up): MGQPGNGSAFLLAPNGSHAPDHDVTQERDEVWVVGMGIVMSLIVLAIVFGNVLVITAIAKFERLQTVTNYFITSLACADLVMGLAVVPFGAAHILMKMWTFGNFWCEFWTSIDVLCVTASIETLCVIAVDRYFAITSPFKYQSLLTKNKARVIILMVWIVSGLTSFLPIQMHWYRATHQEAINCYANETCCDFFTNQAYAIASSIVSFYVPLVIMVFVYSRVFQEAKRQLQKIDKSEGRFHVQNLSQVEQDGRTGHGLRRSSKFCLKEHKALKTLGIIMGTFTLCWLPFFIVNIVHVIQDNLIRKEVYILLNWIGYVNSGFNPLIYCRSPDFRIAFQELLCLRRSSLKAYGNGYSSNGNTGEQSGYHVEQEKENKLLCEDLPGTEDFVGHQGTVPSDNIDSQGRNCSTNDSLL
HNF4A DNA FP – change in binding of human HNF4A to DNA, primary screen, biochemical, fluorescence polarization, FITC-DNA. Hepatocyte nuclear factor 4-alpha (Homo sapiens), P41235. 360,000 compounds, 0.3% hits. activity change, % at 10 µM. AID 1224865, 2016. 1 h; in the data active = activity change above about 30%, passing the limit was not always enough;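 also: controls were the assay level and a saturating level of protein; the project sought stronger binding though the title names inhibitors; some compounds called inactive have numbers as strong as hits; positive values seem to mean higher polarization but the record does not say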
UCH37 DUB inh – inhibitors of human UCH37 deubiquitinase, primary screen, biochemical, Ub-AMC cleavage, fluorescence; Ubiquitin carboxyl-terminal hydrolase isozyme L5 (Homo sapiens), Q9Y5K5; purified proteasome/UCH37; inhibition, % (test concentration not listed); 330,000 compounds, 0.33% hits;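 active = mean of two replicates above 20%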;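 also: 0% = compound-free wells with enzyme and 100% = wells lacking proteasome; stock transfer was 100 nL into about 20 µL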
Target sequence (Q9Y5K5 whole entry, looked up): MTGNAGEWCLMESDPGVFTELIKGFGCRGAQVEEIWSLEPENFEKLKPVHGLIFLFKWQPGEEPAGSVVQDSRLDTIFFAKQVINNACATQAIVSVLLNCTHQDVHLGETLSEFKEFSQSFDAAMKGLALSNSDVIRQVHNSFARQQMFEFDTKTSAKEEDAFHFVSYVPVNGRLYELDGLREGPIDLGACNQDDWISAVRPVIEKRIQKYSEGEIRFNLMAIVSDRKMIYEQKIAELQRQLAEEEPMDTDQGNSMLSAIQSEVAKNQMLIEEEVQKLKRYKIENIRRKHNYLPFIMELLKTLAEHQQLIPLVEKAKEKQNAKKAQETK
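Material: human UCH37 enzyme supplied as purified proteasome complex. Measure: % inhibition of Ub-AMC cleavage fluorescence. Medium: pH 7.4 Tris-HCl (50 mM) with ovalbumin, ATP-MgCl2, DTT. Times: 30 min preincubation with enzyme, 25 min cleavage at room temperature. Detection: AMC fluorescence intensity at 355/460 nm.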
ALR H2O2 inh – inhibitors of human ALR sulfhydryl oxidase, primary screen, biochemical, H2O2 detection, HRP-luminol luminescence, single point. FAD-linked sulfhydryl oxidase ALR (Homo sapiens), P55789. purified ALR, DTT oxidation. inhibition, % (concentration not given with the values). 290,000 compounds, 3.8% hits. AID 485317, 2010;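 active = mean and each replicate at 75% or more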;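 also: stock transfer was 7.5 nL into about 7.5 µL; 0% = neutral wells and 100% = wells with inactivated enzyme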
Ecoli rRNA inh OD600 – recorded beside Ecoli rRNA inh, whose call it bears; OD600 change, %; measured here: OD600 growth;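 optical density of the mix in the first replicate; 0 = DMSO median and -100 = no signal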
Ecoli rRNA inh RFP – recorded beside Ecoli rRNA inh, whose call it bears; RFP signal change, %; measured here: RFP humanized mutant strains;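 first replicate; 0 = DMSO median and -100 = no signal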
An asterisk follows results filed as active; i = inactive; x = no result given; & = joins results of further samples. Not all compounds are listed; rates above refer to the full screens.

Order of results: Ecoli growth	Ecoli rRNA inh	Ecoli rRNA inh OD600	Ecoli rRNA inh RFP	FGF22 binding	B2AR ag	HNF4A DNA FP	UCH37 DUB inh	ALR H2O2 inh
> O=C(Cc1cn2ccsc2n1)OCc1ccccc1
  0.72	x	x	x	x	-18	-0.7	1.0	x
> COc1ccc(-c2sc3ccccc3c2/C=C/c2ccncc2)cc1
  x	-38	-33	11	i	6	2.0	x	-7
> O=C(COc1ccccc1)NC1CCS(=O)(=O)C1 (stereo not drawn)
  0.68	13	16	-7.5	i	-4	-5.2	4.3	-2
> CCOC(=O)C1=NOC(C(=O)NN(C)c2ncc(C(F)(F)F)cc2Cl)C1 (stereo not drawn)
  0.66	18	20	3.5	i	17	-1.8	1.6	-6
> COCCNC(=O)C1(C)CCCN(C(=O)c2ccccc2F)C1 (stereo not drawn)
  x	6	8	-1.2	i	x	1.7	x	x
> Cc1ccc(S(=O)(=O)NNC(=O)CCCCC(=O)NNS(=O)(=O)c2ccc(C)cc2)cc1
  x	16	12	1.9	i	0	-2.5	x	8
> COCCCN1CN(S(=O)(=O)c2ccc(C)cc2C)c2nc3ccccc3nc21
  0.67	-6	-16	3.8	i	-5	0.2	-15	-10
> C[C@@H]1CC[C@@]2(O[C@H](CCO)C[C@@H](O)[C@@H]2O)O1
  x	10	9	6.6	i	3	0.1	1.7	-5
> COc1ccc(Cc2c(-c3cccc(Br)c3)nc3ccc(Br)cn23)c(C)c1
  x	-15	-15	36	i	x	11	x	x
> CN(C)/C=C(\C#N)C(=O)N/N=C(\CC(=O)C(F)(F)F)c1ccco1
  x	6	10	7.5	i	-8	-1.7	x	x
> CCOC(=O)c1c(N)sc2c(O)c(Br)ccc12
  0.64	x	x	x	x	0	0.6	1.4	98*
> O=C(O)c1ccc(Cl)cc1Nc1nc2cc(Cl)ccc2o1
  0.63	-20	-33	2.0	x	7	4.1	-3.0	9
> CCC(NC(=O)CCc1c(C)c2cc3c4c(oc3cc2oc1=O)CCCC4)C(=O)O (stereo not drawn)
  0.68	-16	-11	-2.8	i	3	-2.3	-57	-3
> Cc1ccc(-n2c(C)cc(/C=N/Nc3ccc([N+](=O)[O-])cn3)c2C)cc1
  x	x	x	x	x	6	2.6	x	-1
> O=C(Nc1ccc(C(F)(F)F)cc1)c1cnc(N2CCN(c3ccccn3)CC2)c2ccccc12
  0.7	7	17	-0.6	i	14	0.9	-153	-2
> Cc1ccc(NC(=S)NC(=O)C2CCCCC2)c(Br)c1
  0.69	-12	-46	-3.1	i	7	-0.4	4.7	1
> COC(=O)c1cnc[nH]1
  x	12	7	2.4	i	0	3.4	-0.9	-12
> CCOCCCNC(=S)N1CCC(NC(=O)C2CCCCC2)CC1
  0.68	10	7	-1.2	i	-3	1.1	3.5	-1
> C[C@H]1CN([C@@H](C)CO)C(=O)CCCn2nncc2CO[C@H]1CN(C)S(=O)(=O)c1ccc(Oc2ccccc2)nc1
  x	-2&-4	0&-6	-2.7&1.4	i	x	1.8	x	x
> CC1(C)Cc2ccccc2/C(=C/C(=O)N2CCCCCC2)N1
  0.67	-8	-6	3.8	i	-3	2.6	4.6	9

Reprinted at random: 4 entries already listed, in no set order.
Order of results: Ecoli growth	Ecoli rRNA inh	Ecoli rRNA inh OD600	Ecoli rRNA inh RFP	FGF22 binding	B2AR ag	HNF4A DNA FP	UCH37 DUB inh	ALR H2O2 inh
> COC(=O)c1cnc[nH]1
  x	12	7	2.4	i	0	3.4	-0.9	-12
> CCOCCCNC(=S)N1CCC(NC(=O)C2CCCCC2)CC1
  0.68	10	7	-1.2	i	-3	1.1	3.5	-1
> COc1ccc(Cc2c(-c3cccc(Br)c3)nc3ccc(Br)cn23)c(C)c1
  x	-15	-15	36	i	x	11	x	x
> CC1(C)Cc2ccccc2/C(=C/C(=O)N2CCCCCC2)N1
  0.67	-8	-6	3.8	i	-3	2.6	4.6	9

With a hit mark in ALR H2O2 inh, among the entries above:
SMILES	Ecoli rRNA inh	Ecoli rRNA inh OD600	Ecoli rRNA inh RFP	FGF22 binding	B2AR ag	UCH37 DUB inh	ALR H2O2 inh
CCOC(=O)c1c(N)sc2c(O)c(Br)ccc12	x	x	x	x	0	1.4	98*

Further entries follow.
Order of results: Ecoli growth	Ecoli rRNA inh	Ecoli rRNA inh OD600	Ecoli rRNA inh RFP	FGF22 binding	B2AR ag	HNF4A DNA FP	UCH37 DUB inh	ALR H2O2 inh
> COc1ccc(CN2CCNC(=O)C2CC(=O)NCC2CCOCC2)c(F)c1 (stereo not drawn)
  0.71	8	16	3.1	i	-5	-1.8	-0.3	2
> CCCCCN1CC(=O)N2Cc3[nH]c4ccccc4c3C[C@H]2C1=O
  0.66	-9	2	-0.8	i	4	1.0	1.2	-10
> NC(=O)NCc1ccccc1
  0.68	3	-5	2.5	i	-2	-4.2	-0.6	-6
> COc1ccc(C(=O)OC(C(=O)c2ccc(C)cc2)c2ccccc2)cc1 (stereo not drawn)
  0.68	x	x	x	x	-7	1.7	-4.8	-11
> CSCCC(NC(=O)c1ccccc1Cl)C(=O)NCC(c1ccco1)N1CCCCC1 (stereo not drawn)
  0.7	3	4	36	i	-3	2.1	-0.6	-3
> COc1ccc(-c2csc3ncnc(NCCCO)c23)cc1
  0.69	-22	-26	-3.6	i	-1	-4.3	2.1	11
> CCOC(=O)N1CCN(S(=O)(=O)N2CCCC(C(=O)NCc3ccc(OC)cc3)C2)CC1 (stereo not drawn)
  x	7	1	0.6	i	-12	-2.8	x	0
> C=CCSc1ncc(CO)n1Cc1ccccc1
  0.61	-12	-12	-2.6	i	4	0.4	-2.1	2
> COc1ccccc1NC(=O)C(C)OC(=O)CCSc1ccc(F)cc1 (stereo not drawn)
  0.66	-7	-25	-5.0	i	-4	-0.8	0.5	0
> Cc1cc(C(=O)NCc2cccnc2)cs1
  0.71	7	8	-3.5	i	7	-2.2	3.9	-7
> CCCn1c(NC(=O)C2CCN(C(=O)c3ccccc3C)CC2)nc2ccccc21
  0.63	-12	-22	-1.1	x	9	0.1	-3.8	-10
> Cc1ccccc1Cn1c(=O)c2c(nc3n2CCN3Cc2ccco2)n(C)c1=O
  0.72	2	0	-4.5	i	-7	-1.1	4.7	x
> Cc1cc(C(=O)Nn2c(-c3ccncc3)nc3ccccc3c2=O)ccc1[N+](=O)[O-]
  0.71	15	14	1.3	i	3	1.1	5.4	2
> Cc1ccc(C(=O)NCCN2CCOCC2)cc1C
  0.66	14	11	0.3	i	5	0.4	0.8	10
> Cc1c(NC(=O)CSc2nnc(-c3cccnc3)n2N)c(=O)n(-c2ccccc2)n1C
  0.69	16	12	2.9	i	1	2.1	2.4	1
> Cc1cc(C)cc(NC(=O)CCC(=O)Nc2nnc(C(C)C)s2)c1
  0.69	5	6	1.5	i	1	2.2	1.1	-2
> C[C@H](CO)N1C[C@H](C)[C@@H](CN(C)S(=O)(=O)c2cn(C)cn2)Oc2ccc(NC(=O)C3CC3)cc2C1=O
  0.72	3&11	0&6	0.4&0.4	i	-3	1.4	0.2	1
> Cc1cccc(N(C)C(=O)CCS(=O)(=O)c2cccc3nonc23)c1
  0.69	x	x	x	x	-2	-0.8	5.1	-2
> Cc1[nH]c2ccccc2c1C(=O)CN1C(=O)C(=O)N(CCC2=CCCCC2)C1=O
  0.68	-1	5	7.3	i	-2	-2.7	2.5	x
> CCOc1ccc(/C=C/C(=O)N2CCOCC2)cc1OC
  0.66	14	6	4.9	i	-2	-3.0	-16	-17
> Fc1ccc(Nc2ccnc(Nc3ccc(F)cc3)n2)cc1
  0.59	-15	-42	3.7	i	18	2.6	3.5	-4
> CCn1c2ccc(F)cc2c2nnc(SCCN3CCOCC3)nc21
  0.67	-12	-6	-1.6	i	1	0.3	6.6	-59
> COc1ccccc1NC(=O)C(C)Sc1nc2ccccc2c(=O)n1CC1CCCO1 (stereo not drawn)
  0.63	4	5	-1.2	i	-13	-2.8	0.7	4
> CC(=O)c1cccc(NC(=S)N2CCN(S(=O)(=O)c3ccccc3)CC2)c1
  0.71	-5	-2	0.3	i	4	-1.5	-2.3	-13
> O=C1c2ccccc2C(c2nnnn2Cc2ccccc2)N1CCCN1CCOCC1 (stereo not drawn)
  x	8	12	0.6	i	x	-0.9	x	x
> O=C(NCC(=O)N(Cc1ccco1)C(C(=O)NC1CCCCC1)c1cccnc1)c1cccs1 (stereo not drawn)
  0.71	x	x	x	x	-26	-0.6	0.2	-5
> CC(C)CC(NC(=O)c1ccc(Cl)cc1)C(=O)O (stereo not drawn)
  0.6	x	x	x	x	3	0.5	1.1	3
> COc1ccc(CCNC(=O)C(=O)N2CCCCC2)cc1OC
  0.71	x	x	x	x	-9	-2.9	1.4	-2
> CCOP(=O)(OCC)C(NC(=O)Nc1ccc(Cl)cc1)C(=O)N(CC)CC (stereo not drawn)
  0.66	-3	8	-1.1	i	5	1.3	2.2	-2
> CC12CCC(=O)C=C1CCC1C3CC(O)C(O)(C(=O)CO)C3(C)CC(O)C12F (stereo not drawn)
  0.72	10	10	1.3	i	-6	2.6	0.7	x
> CCC1=NN2C(=N)/C(=C\c3ccc(OCCOc4ccccc4OC)cc3)C(=O)N=C2S1
  0.65	-3	-2	1.9	i	4	-0.7	1.6	11
> O=C(COC(=O)CCCC1=NS(=O)(=O)c2ccccc2N1)Nc1ccccc1
  0.68	-4	-4	2.7	i	-6	1.6	2.8	-2
> CCOc1cc(C)cc2oc(=O)cc(-c3ccccc3)c12
  0.66	-36*	-3.1*	-7.2*	i	0	1.9	3.6	17
> c1ccc(CSc2nnnn2-c2cccc3ccccc23)nc1
  0.71	x	x	x	x	43*	0.0	2.9	x
> COc1ccccc1N1CCN(C/C(O)=C(\C#N)c2nc(-c3ccccc3)cs2)CC1
  x	x	x	x	x	4	1.4	x	1
> CC(C)CC1CC(=O)OC1(C)C(=O)CSc1nc2ccccc2s1 (stereo not drawn)
  0.7	x	x	x	x	0	1.6	2.6	-3
> O=[N+]([O-])c1cccc(S(=O)(=O)N2CCc3ccccc3C2)c1
  0.65	11	7	5.0	i	-4	0.7	0.0	-6
> O=C(NC(=S)Nc1cccc(F)c1)c1cccc([N+](=O)[O-])c1
  x	3	5	-4.1	i	-4	2.9	x	33
> Cc1ccc(C(=O)NCCc2c[nH]c3ccccc23)s1
  0.64	-3	1	0.7	i	9	-0.8	3.7	x
> COc1ccccc1Cc1c(-c2ccco2)nc2ccc(Br)cn12
  x	10	6	5.6	i	x	0.2	x	x
> CCN(CC)C(=O)COc1ccc2c(c1)C(=O)CC(C)(C)O2
  0.67	8	10	5.9	i	-17	0.0	-492	1
> Cn1c(CN2CCCC2)nc2cc(NC(=O)Nc3ccccc3)ccc21
  0.67	1	-4	-3.1	i	4	6.6	0.1	-32
> CCCCCCCCc1nc(SC(C)C(=O)O)n[nH]1 (stereo not drawn)
  0.69	2	9	-0.6	i	-3	1.4	6.5	0

Compound activity: PubChem BioAssay, several laboratories
